TRPML1 inh: qHTS for Inhibitors of the Human Mucolipin Transient Receptor Potential 1 (TRPML1) | TRPML1-inducible cells, Ca2+ dye fluorescence, FDSS; hits give low values; inhibition of EC80 agonist-evoked calcium signal | activity change, negative = inhibition, % (test concentration not listed) | 390,000 compounds, 0.02% hits | AID 624415, 2012; in the data active means activity change below about -50%; inconclusive means about -30% to -50%; inactive means above about -30%;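 also: stimulus is agonist 54-4 at its EC80 concentration; % is scaled to controls: 0 for no effect and ±100 for the full control effect; compound concentration not given in the record; the text of the record puts the active cut at -80%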
Target sequence (Q9GZU1 whole entry, looked up): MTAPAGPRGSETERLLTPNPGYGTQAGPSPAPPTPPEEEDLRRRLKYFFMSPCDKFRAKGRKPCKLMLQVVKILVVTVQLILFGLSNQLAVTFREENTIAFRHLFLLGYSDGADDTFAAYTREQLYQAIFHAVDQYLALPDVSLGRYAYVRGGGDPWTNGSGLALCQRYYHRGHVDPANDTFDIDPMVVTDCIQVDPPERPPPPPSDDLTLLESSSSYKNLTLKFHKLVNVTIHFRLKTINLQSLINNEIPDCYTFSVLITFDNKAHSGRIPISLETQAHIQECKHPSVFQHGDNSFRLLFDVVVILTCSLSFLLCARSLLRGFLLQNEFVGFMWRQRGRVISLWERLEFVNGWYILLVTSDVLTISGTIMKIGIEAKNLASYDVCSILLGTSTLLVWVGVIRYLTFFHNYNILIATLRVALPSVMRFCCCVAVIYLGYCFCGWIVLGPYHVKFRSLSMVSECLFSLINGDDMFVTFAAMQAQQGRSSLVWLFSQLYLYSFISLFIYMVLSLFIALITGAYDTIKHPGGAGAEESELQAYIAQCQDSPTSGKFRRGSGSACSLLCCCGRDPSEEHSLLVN
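Calcium fluorescence in TRPML1-DL cells induced overnight with Tet: a 110 s read after compound pin addition, then a 110 s antagonist read after challenge with 54-4 at 4 uM final (EC80).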
gsp antagonist: qHTS for Antagonists of gsp, the Etiologic Mutation Responsible for Fibrous Dysplasia/McCune-Albright Syndrome: qHTS. Potency, µM (titrated, usually from 76.9 µM), without a hit: at the highest dose activity change, negative = inhibition, most hits filed as inhibitors. gsp-mutant cells, cAMP HTRF, 30 min; control for the full effect not named in the record. AID 624288, 2012. 340,000 compounds, 0.4% hits; active = falling curve of any shape with a large fitted effect; inconclusive = falling curve, mostly with a smaller effect; inactive = flat or rising curve; cell line not stated here;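 also: intracellular cAMP measured with PDE inhibitor Ro 20-1724 present during compound exposure; potency is read from the fitted curve at half-maximal effect; % is scaled to controls: 0 for no effect and ±100 for the full control effect; nearly all actives have a fitted effect of over 65% in size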
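HTRF cAMP measurement after 30 min RT detection following 30 min, 37C compound treatment alongside […] (added as 300 uM solution) in G418-selected cells seeded at 2000/well and grown 16–24 h.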
TRPML1 ag: qHTS for Agonists of the Human Mucolipin Transient Receptor Potential 1 (TRPML1). Mucolipin-1 (Homo sapiens), Q9GZU1. 410,000 compounds, 0.12% hits. TRPML1-expressing cells, Ca2+ dye fluorescence, FDSS; host cell line not named in the record; reference of the full effect not given here. activation, % (concentration not given with the values); in the data active = activation above about 50%; inconclusive = about 30% to 50%; inactive = below about 30%; also: 0% is about no effect; the text of the record puts the active cut at 80%
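Tetracycline-induced TRPML1-DL cells are seeded and incubated overnight before loading with a no-wash Ca2+ dye and quencher. Agonist activity is taken from the 110 s fluorescence read following compound pin-transfer on an FDSS, before EC80 54-4 challenge.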
gsp ag: qHTS for Agonist of gsp, the Etiologic Mutation Responsible for Fibrous Dysplasia/McCune-Albright Syndrome: qHTS; gsp mutant cells, cAMP HTRF, 30 min; control for the full effect not named in the record; Potency, µM (titrated, usually from 76.9 µM), without a hit: at the highest dose activation (cAMP increase), actives largely listed as activators; 340,000 compounds, 0.13% hits; active = well fitted activation curve with a large enough effect; inconclusive = small, poorly fitted or top-dose-only effect, or another doubt; inactive = no such curve, though single readings can be large or run the other way; cell line not stated here;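 also: phosphodiesterase inhibitor Ro 20-1724 added with compounds to block cAMP breakdown; potency is read from the fitted curve at half-maximal effect; nearly all actives have a fitted effect of over 60% in size; about a fifth of the inactives were tested at one dose only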
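Cells in DMEM/10% FBS with G418 were pretreated with compounds in DMSO plus […] (300 uM stock) for 30 min at 37C. cAMP was measured by HTRF (cAMP-d2 plus anti-cAMP antibody-K) after 30 min at room temperature.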
Menin MLL FP FL: qHTS Assay for Inhibitors Targeting the Menin-MLL Interaction in MLL Related Leukemias: Competition With Fluorescein Labeled MLL-derived Peptide; Fluorescence polarization, fluorescein-MLL peptide displacement from menin; FP activity change, % at 61.4 µM; 290,000 tested, under 10 active; AID 1766, 2009; inconclusive = falling polarisation curve, or a change in total fluorescence; inactive = total fluorescence flat and polarisation flat or rising; no compound was filed as active; the % refers to the polarisation; negative = inhibition;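 also: % of control where 0% means no effect; inhibitors lower the polarisation; unlabelled MLL peptide was the positive control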
ClpP mod: qHTS Assay for Activators of ClpP | ATP-dependent Clp protease proteolytic subunit (Bacillus subtilis (strain 168)), P80244 | purified B. subtilis ClpP, FRET peptide cleavage, 20 min | Potency, µM (titrated, usually from 57.5 µM), for the others: top-dose activity change, negative = active | 340,000 compounds, 1.9% hits | AID 651965, 2013; active = well fitted falling curve with a large enough effect; inconclusive = small, poorly fitted or top-dose-only effect; inactive = no such curve, though single readings can be large or run the other way; also: potency is read from the fitted curve at half-maximal effect; the source files actives as falling curves though it sought activators and does not explain the sign; nearly all actives have a fitted effect of over 65% in size; many hits overshoot -100%
Target sequence (P80244 whole entry, looked up): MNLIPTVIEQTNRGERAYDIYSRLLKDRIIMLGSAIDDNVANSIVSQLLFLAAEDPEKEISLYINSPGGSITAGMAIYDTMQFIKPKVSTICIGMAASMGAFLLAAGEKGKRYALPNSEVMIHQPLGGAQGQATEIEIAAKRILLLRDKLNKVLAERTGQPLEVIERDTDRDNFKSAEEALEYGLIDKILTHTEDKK
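Purified B. subtilis ClpP, 10 microg/mL final in Tris/HCl pH8 with KCl, BSA, glycerol and Tween-20, cleaved an Abz/nitrotyrosine-quenched decapeptide. Fluorescence (ex 320, em 430) was read at 0 and 20 min at room temperature. Delta was normalized to 5.8 microM ADEP and DMSO/no-enzyme controls.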
* = called active by the depositor; ? = inconclusive; nt = no result given; & = joins results of further samples; [ ] = dose if it differs, or a comment. The order is random; about 2.1% have a hit in one of these screens.

SMILES	TRPML1 inh	gsp antagonist	TRPML1 ag	gsp ag	Menin MLL FP FL	ClpP mod
CC(=O)NC(CCS(C)(=O)=O)C(=O)Nc1cccc(C)c1 (stereo unspecified)	11	12%	0.4	?	-3.6	-1.2%
O=C(CNC(=S)NC(=O)c1ccccc1Br)c1ccccc1	-15	7%	3.0	0%[15.4 µM]	9.5	nt
Brc1ccc(-c2nnc3ccc(N4CCN(c5ccccc5)CC4)nn23)cc1	12	9%	1.3	2%	-1.6	-2.9%
O=C1CC(C(=O)O)(c2ccccc2)c2cccc(F)c21 (stereo unspecified)	1	5%	-1.6	14%[15.4 µM]	-0.4	-0.4%
c1ccc(-c2nnnn2-c2ccccc2)cc1	-8	-12%	0.7	11%	0.6	-1.4%
Cc1ccc(C(=O)NN2C(=O)C3C(C2=O)C2C=CC3C23CC3)cc1 (stereo unspecified)	43	8%	0.8	-10%	-0.6	-1.6%
OC(CNC1Cc2ccccc2C1)c1ccccc1 (stereo unspecified)	-16	15%	-0.6	-28%[15.4 µM]	-0.6	-0.3%
COc1ccc(-c2cc3nc(-c4ccc(C)cc4)cc(C(F)(F)F)n3n2)cc1	8	nt	0.8	nt	nt	-3.8%
c1ccc2c(c1)ccc1[nH]c3c(c12)CCCC3	12	-13%	1.2	-3%	nt	18µM*
CCOC(=O)N1CCN(CCC(=O)Nc2ccc(OC)cc2OC)CC1	30	11%	1.5	0%	-2.3	0.0%
Cc1[nH]n(-c2ccccc2)c(=O)c1/C=N/O	28	-2%	0.8	-62%[inhibitor]	-0.1	0.2%
COc1ccc(NC(=O)c2cc(C3CC3)on2)c(OC)c1	-2	-3%	2.1	-8%	1.0	1.6%
O=C(Nc1cccnc1)c1cc(-c2ccc(Br)cc2)nc2ccccc12	17	-3%	-0.4	8%	-2.8	nt
O=C(CCNC(=O)c1ccc(Br)cc1)Nc1ncccc1O	-6	12%	-0.3	?	nt	-0.9%
COc1ccc(NC(=O)CSc2nc3ccncc3[nH]2)c(OC)c1	-14&-2	-1%	1.0&-1.0	-27%	4.5	0.4%&0.3%
CC(C)(CO)Nc1nc(N2CCCC2)nc(N2CCCC2)n1	28	-3%	2.2	-36%[inhibitor]	5.3	0.2%
CCCCn1c(SCC(=O)NCc2ccco2)nc2ccccc2c1=O	1	-2%	1.6	2%	5.5	-0.2%
CC(C)(C)c1cc(C2=CSC3=NCCN23)cc(C(C)(C)C)c1O	-4	-3%	0.6	5%	-0.2	-0.6%
Cn1cc(CN2CCC(n3nccc3NC(=O)CCc3ccccc3)CC2)cn1	8	5%	0.6	41%	nt	2.3%
CCCCN(C(=O)c1ccc(N2C(=O)c3ccccc3C2=O)cc1)c1c(N)n(CC(C)C)c(=O)[nH]c1=O	-8	4%	0.1	-22%	nt	-0.4%
COc1ccc(CCN2CC(C(=O)N(C)CC(=O)Nc3cccc(F)c3)CC2=O)cc1OC (stereo unspecified)	-18	-1%	-0.4	9%	nt	1.6%
O=C(OCc1nc2ccccc2[n+]([O-])c1C(=O)c1ccccc1)c1ccco1	-15	-13%	0.7	0%[15.4 µM]	0.0	-0.3%
CC(C)CC(=O)Nc1ccc(S(=O)(=O)Nc2nccs2)cc1	26	3%	-0.3	-15%	-3.9	-2.1%
O=C(Nc1ccc(-c2nc3ccccc3[nH]2)cc1)c1c(F)c(F)c(F)c(F)c1F	0	-1%	-0.5	22%	-0.1	nt
CCCn1nc(C(=O)N2CCCc3ccccc32)c2ccccc2c1=O	-10	nt	1.0	3%[15.4 µM]	-2.0	nt
COc1ccc(Cn2c(-c3ccco3)nc3oc4cc(OC)ccc4c(=O)c3c2=O)cc1	-5	10%	-1.1	2%	5.1	-0.5%
COc1cccc(NC(=O)COC(=O)c2cc(=O)c3ccccc3o2)c1	-3	2%	-0.4	-46%	nt	-12%
O=c1[nH]ncc2c3ccccc3n(Cc3ccccc3)c12	17	9%	-1.1	-1%	4.7	?
CCOc1ccc(CCNC(=O)c2ccc(-n3c(C)cc4c3CCCC4)cc2)cc1OCC	-14	nt	0.9	nt	nt	-10%
O=C(Nc1ccc(N2CCN(C(=O)c3ccco3)CC2)cc1)c1ccco1	-9	-3%	0.7	-4%[15.4 µM]	0.6	nt
CCn1c(O)c(/C=C2\C=Nc3ccccc32)sc1=O	-6	5%	0.5	-54%[inhibitor]	0.2	0.5%
O=C(Cn1cnc2nc3c(cc2c1=O)CCCC3)N1CCN(c2cccc(C(F)(F)F)c2)CC1	-8	nt	-0.8	nt	nt	-5.4%
N#Cc1ccccc1-c1ccccc1C(=O)N1CCCCC1	-21	3%	0.5	34%	-0.5	-1.0%
O=C(COC(=O)CNS(=O)(=O)c1ccc(F)c(F)c1F)NC1CC1	10	-1%	0.2	3%[15.4 µM]	nt	-0.8%
CCC(=O)NCCCCNC(=O)CC	6	8%	0.3	-10%	4.7	-5.6%
CCOc1nnnc2c1sc1nc(N3CCOCC3)c3c(c12)CCCC3	-10	-1%	0.1	-17%	3.3	-0.9%
COC(=O)N/N=C(C)/C=C/c1ccccc1	0	-5%	-0.3	-20%	nt	-1.4%
Cc1ccccc1C(=O)NCc1nc2cccnc2n1Cc1ccccc1	-4	nt	-0.7	nt	nt	-0.9%
CCOC(=O)C1CCCN(C(=O)COc2ccc(N(C)S(=O)(=O)c3ccc(F)cc3)cc2)C1 (stereo unspecified)	-12	-9%	0.0	-5%	-0.2	0.2%
COc1ccc(/C=C2\N=C(C(C)(C)C)OC2=O)c(OC)c1	-4	-7%	1.6	5%	-0.3	4.4%
CN(C(=O)CSc1nnc(-c2ccncc2)n1-c1ccccc1)C1CCS(=O)(=O)C1 (stereo unspecified)	nt	0%	nt	?	3.1	-20%
O=C(Nc1cccc(F)c1)c1ccc2ncsc2c1	-10	-10%	1.4	3%	-0.8	nt
N=C1c2ccccc2CN1NC(=O)c1cccc(S(=O)(=O)N2CCCC2)c1	10	5%	-0.8	18%	4.4	3.1%
O=C(Nc1cccc(-c2cnc3ccccc3n2)c1)c1ccncc1	-4	-12%	1.6	10%[15.4 µM]	1.0	nt
CCc1ccc(NC(=O)Nc2cccs2)cc1	2	-8%	-1.3	-3%	5.8	0.8%

Molecules shown so far with a CF3 group:
SMILES	TRPML1 inh	gsp antagonist	TRPML1 ag	gsp ag	Menin MLL FP FL	ClpP mod
COc1ccc(-c2cc3nc(-c4ccc(C)cc4)cc(C(F)(F)F)n3n2)cc1	8	nt	0.8	nt	nt	-3.8%
O=C(Cn1cnc2nc3c(cc2c1=O)CCCC3)N1CCN(c2cccc(C(F)(F)F)c2)CC1	-8	nt	-0.8	nt	nt	-5.4%

Continuation:
SMILES	TRPML1 inh	gsp antagonist	TRPML1 ag	gsp ag	Menin MLL FP FL	ClpP mod
O=C1CC(C(=O)N2CCOCC2)C2(CCCC2)O1 (stereo unspecified)	3	9%	0.0	19%	-2.5	-0.6%
Cc1cc(OC(C)C(=O)NCc2cccnc2)c2c(C)c(Cc3ccccc3)c(=O)oc2c1 (stereo unspecified)	37	-21%	-0.5	-16%	-4.3	4.0%
COc1ccc(NC(=O)c2oc3ccccc3c2NC(=O)C(C)(C)C)cc1	-10	-20%	3.2	?	0.5	-2.6%
CCCCCCn1c(=O)n2n(c1=O)C[C@]1(OC(=O)NCc3ccccc3)CN(S(=O)(=O)c3ccc(C)cc3)C[C@]1(O)C2	5	nt	0.9	-62%[inhibitor]	nt	0.3%
CCOC(=O)c1c[nH]c2c3c(ccc2c1=O)CCCC3	5	-2%	-0.5	0%	2.9	8.8%
COc1ccc(CCN2CC(C(=O)NCc3ccc(F)cc3)CC2=O)cc1OC (stereo unspecified)	-4	4%	0.4	5%[15.4 µM]	-0.3	nt
C=CC[C@@H](CC(=O)NCCO)C(=O)N[C@@H](C)COC(=O)[C@H](CC=C)CC(=O)OC(C)(C)C	-1	13%	-0.9	nt	nt	1.8%
CCOc1ncccc1-c1nc(-c2cccs2)no1	-5	1%	1.2	?	1.5	2.8%
CCN(C(=O)CSc1nc2ccccc2n1CC(=O)N1CCCC(C)C1)c1ccccc1 (stereo unspecified)	2	nt	-0.8	nt	nt	-28%
COc1ccccc1-c1ccc(NC2CCCCC2)nn1	23	-19%	2.6	?	9.1	-5.8%
Cc1ccc(OCCCN2C(=O)C(=O)c3cccc(C)c32)cc1	19	16%	1.2	?	8.3	0.2%
CCOC(=O)C1(CCc2ccccc2)CCN(C(=O)CN2C(=O)CSC2=O)CC1	2	4%	-0.7	-3%[15.4 µM]	1.4	nt
COc1ccc(-c2nc3sc(CCNS(=O)(=O)c4ccc(F)c(C)c4)c(C)n3n2)cc1	17	nt	3.1	nt	nt	-2.8%
Cc1cc(SCC(=O)NCC2CCCO2)nc2ccccc12 (stereo unspecified)	20	11%	3.7	?	nt	-1.2%
Cn1c(SCC(=O)Nc2ccccc2O)nnc1-c1ccco1	-2	8%	0.4	-32%[inhibitor]	nt	0.3%
COc1ccc2[nH]c(=O)c(COC(=O)c3cccs3)cc2c1	4	-5%	-1.8	2%	4.0	?
Cc1ccc(C(=O)N(C)CC(=O)Nc2cccc(C)c2C)o1	-11	0%	0.6	?	-4.0	2.4%
O=C(O)c1ccccc1N=Cc1c(O)n(-c2nccs2)c(=O)c2ccccc12	10	-32%	0.0	-9%	8.0	-9.4%
CSc1ccc(S(=O)(=O)NCc2ccccc2)cc1	-9	5%	1.7	-3%	0.6	-0.5%
Cc1ccc(C(=O)N/N=C\c2ccc(OC(=O)c3cccc(F)c3)cc2)cn1	-4	2%	0.5	26%	-0.3	nt
O=C(Cc1cccs1)Nc1c(C(=O)Nc2ccc(F)cc2)oc2ccccc12	23	nt	0.1	nt	nt	160%
COc1ccccc1C(=O)N1CCN(Cc2nc3cc([N+](=O)[O-])ccc3n2C)CC1	31	2%	-0.3	-7%[15.4 µM]	1.5	?
Cc1ccccc1C(=O)N1CCN(c2ccc(N3CCOCC3)nn2)CC1	16	6%	0.7	-7%[15.4 µM]	nt	4.7%
Clc1cccc(Cl)c1OCCCCN1CCCCC1	2	13%	-0.6	?	-1.0	0.8%
Cc1ccc(NCC(O)C(O)C(O)CO)c(N=Nc2ccccc2)c1C (stereo unspecified)	-6	1%	-0.9	-38%[inhibitor]	-1.0	0.8%
CN1CCc2c(sc3c2C(=O)NC(c2cccs2)N3)C1 (stereo unspecified)	-8	3%	3.7	23%	?	25µM*
